FBPA coupling cs = coupling enzyme interference in Giardia aldolase counter-screen; coupling enzyme system counterscreen, AmpLite Red fluorescence; activity change, negative = inhibition, % at 58.2 µM, hits read low; 290,000 compounds, 0.67% hits; AID 2472; in the data active = activity change below about -30%; note: % is set by controls: 0 for no effect and ±100 for the full control effect
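Fluorescence at 525 nm excitation and 598 nm emission measured inhibition of the coupled detection system without aldolase. Compounds (at 57.5 uM final) were preincubated 10 min at room temperature with coupling enzyme reagent before a 20 min substrate/AmpLite Red step.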
AT treatment = candidate therapy for ataxia-telangiectasia | 320,000 compounds, 0.19% hits | Potency, µM (top dose mostly 57.5 µM), for the others: top-dose activation, most hits filed as activators | […] A-T fibroblasts, KAP-1 phosphorylation AlphaLISA; neocarzinostatin DNA damage 30 min before lysis; note: potency is the fitted concentration of half-maximal effect; % of control where 0% means no effect; nearly all actives have a fitted effect of over 45% in size
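ATM-like activity read as KAP-1 phosphorylation via AlphaLISA donor/acceptor antibody pairs after lysis and 6 hr at 25C. Cells were ATM-null patient fibroblasts ([…], hTERT), dosed 60 min, then exposed to the DSB inducer NCS for 30 min.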
CXXC DNA block = inhibitors of human MLL CXXC domain-DNA interaction; Q03164; MLL-CXXC / FITC-HOXA9 DNA fluorescence polarization; Potency, µM (doses to about 115 µM), without a hit: top-dose activity change, negative = inhibition, actives largely listed as inhibitors; 290,000 compounds, 0.037% hits; active = well fitted inhibition curve with a large enough effect in the polarisation, with a control signal flat, not every such curve was filed as active; inconclusive = small, poorly fitted or top-dose-only effect, or effect the other way, or a change in a side signal; inactive = no such curve, though single readings can be large or run the other way; the % refers to the polarisation; note: potency is the fitted concentration of half-maximal effect
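Fluorescence polarization: 7 uM MLL-CXXC (stock) preincubated 5 min with compounds, then 50 nM fluorescein-HOX-A9 DNA (stock) added; 30 min ambient. Buffer 50 mM Tris-HCl pH 7.5, 50 mM NaCl, 1 mM DTT, 0.05% BSA.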
GALK inhibitor = inhibitors of human galactokinase. AID 1868. P51570. Purified GALK, Kinase-Glo residual ATP luminescence. 270,000 compounds, 0.007% hits. Potency, µM (series often up to 57.5 µM), for inactives: at the highest dose activity change, negative = inhibition, usual class: inhibitors; note: potency is the fitted concentration of half-maximal effect; % is set by controls: 0 for no effect and ±100 for the full control effect
Target sequence (P51570 whole entry, looked up): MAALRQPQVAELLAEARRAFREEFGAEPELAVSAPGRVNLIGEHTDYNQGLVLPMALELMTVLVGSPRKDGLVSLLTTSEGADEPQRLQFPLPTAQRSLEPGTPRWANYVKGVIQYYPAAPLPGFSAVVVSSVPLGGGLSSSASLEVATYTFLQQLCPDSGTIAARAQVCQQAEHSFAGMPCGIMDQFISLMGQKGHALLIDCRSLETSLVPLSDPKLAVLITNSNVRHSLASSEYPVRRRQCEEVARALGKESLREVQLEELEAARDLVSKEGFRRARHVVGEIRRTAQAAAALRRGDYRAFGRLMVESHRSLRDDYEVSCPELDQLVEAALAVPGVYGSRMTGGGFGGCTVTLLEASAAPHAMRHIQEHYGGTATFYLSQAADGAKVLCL
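ATP-depletion format; final 35 uM ATP, 100 uM D-galactose, 5 nM enzyme; pH 8.0 HEPES/Mg2+ buffer; 60 min RT; luminescence read 10 min after detection reagent.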
Chronic BCR inh = inhibitors of chronic active B-cell receptor signaling; ABC-DLBCL IkBa-CBG/CBR reporter, luminescence ratio, 4 h; Potency, µM (top dose mostly 46.1 µM), inactives show at the top dose ratio change, negative = lower green/red ratio, usual class: inhibitors; 340,000 compounds, 0.05% hits; AID 493014; active = well fitted inhibition curve with a large enough effect in the signal ratio, with a control signal flat, not every such curve was filed as active; inconclusive = small, poorly fitted or top-dose-only effect, or effect the other way, or a change in a side signal; the % refers to the signal ratio;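 note: potency is the fitted concentration of half-maximal effect; plate controls were basal doxycycline-induced cells for no effect and cells given 10 µM MG132 for full effect; MG132 reads +100%, hits lower the ratio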
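Compounds up to 46 uM were incubated four hours with TMD8 cells whose green CBG68 luciferase is fused to IkappaBalpha; red CBR luminescence normalised the signal, and concentration-effect curves were fitted to fusion, red and ratio data.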
Tb PFK block = T. brucei PFK enzyme inhibition | O15648 | T. brucei PFK, ADP-Glo luminescence | Potency, µM (series often up to 57.5 µM), for inactives: at the top dose activity, negative = inhibition, hits mostly inhibitors | 330,000 compounds, 0.17% hits | AID 485367;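 note: potency is the fitted concentration of half-maximal effect; 0% = uninhibited 1x PFK enzyme wells and -100% = no-enzyme wells; nearly all actives have a fitted effect of over 60% in size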
Target sequence (O15648 whole entry, looked up): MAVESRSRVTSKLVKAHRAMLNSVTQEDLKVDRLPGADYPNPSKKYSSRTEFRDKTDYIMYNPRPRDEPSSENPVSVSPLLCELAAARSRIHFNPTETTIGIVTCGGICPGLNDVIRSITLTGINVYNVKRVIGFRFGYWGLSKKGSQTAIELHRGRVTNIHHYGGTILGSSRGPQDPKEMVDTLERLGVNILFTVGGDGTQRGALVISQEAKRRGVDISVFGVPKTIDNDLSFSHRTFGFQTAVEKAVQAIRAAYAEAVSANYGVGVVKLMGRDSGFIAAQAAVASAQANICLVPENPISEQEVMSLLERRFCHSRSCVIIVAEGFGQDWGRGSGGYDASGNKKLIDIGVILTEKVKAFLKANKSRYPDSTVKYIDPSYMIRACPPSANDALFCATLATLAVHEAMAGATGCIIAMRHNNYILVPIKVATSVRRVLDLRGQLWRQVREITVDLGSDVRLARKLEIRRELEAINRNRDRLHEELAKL
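1.25 nM PFK with 0.5 mM F6P and 0.1 mM ATP in 0.1 M TEA pH 8.0, 5 mM MgCl2, incubated 45 min at room temperature; ADP measured by ADP-Glo luminescence; compounds titrated up to 57 uM.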
Giardia killer = Giardia lamblia killing. activity change, % at 7.66 µM, hits read low. 340,000 compounds, 0.15% hits. Giardia lamblia trophozoite viability; in the data active = activity change below about -80%; inconclusive = between about -30% and that limit;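 note: parasites exposed to compound for two days anaerobically before the ATP read; % is set by controls: 0 for no effect and ±100 for the full control effect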
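Viability, read as ATP luminescence: trophozoites at 100 cells/well, compound added, 48 hrs anaerobic at 37 deg C, then 15-30 min room-temperature development before reading.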
KCNH2 WT inh = KCNH2 (human, wildtype) channel inhibition; Q12809; U2OS, BacMam KCNH2, thallium flux FluxOr; hits give low values; activity change, % at 1.84 µM; 340,000 compounds, 0.37% hits;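 active = maximum activity change below -70%; inconclusive = maximum activity change between -70% and -50%; inactive = maximum activity change above -50%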; note: % is set by controls: 0 for no effect and ±100 for the full control effect
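U2OS cells were transduced with wild-type KCNH2 virus (2.03 x 10^8 / mL) for 4 h at room temperature, then cultured overnight at 37 C. Thallium flux was read with FluxOr dye. Rate constants were normalized to DMSO controls.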
TCR activator = activators of T cell receptors; primary human leukocytes, anti-CD3, IL-2 HTRF, 48 h; Potency, µM (titrated, usually from 9.22 µM), without a hit: top-dose activation of IL-2 secretion, actives largely listed as activators; 330,000 tested, under 10 active; note: % of control where 0% means no effect
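TCR engagement came from a-CD3 beads alone, with compounds added to primary human leukocytes for 48 hr. Secreted IL-2 bridged europium cryptate- and d2-labelled anti-IL-2 antibodies, giving FRET emission at 665nm after 320nm excitation.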
Active calls of the source: *; i = inactive; ? = inconclusive; nt = not tested or not shown; [ ] = dose if it differs, or a comment. Unless noted, calls come from the whole dose curve; as a rule, active = well fitted curve in the direction sought with a large enough effect; inconclusive = small, poorly fitted or top-dose-only effect, or another doubt; inactive = no such curve, though single readings can be large; an effect the other way counts as inactive or inconclusive. The list is partial; the hit share may differ from the screen's.

Sample of the layout (twelve entries):
Values run as follows: FBPA coupling cs	AT treatment	CXXC DNA block	GALK inhibitor	Chronic BCR inh	Tb PFK block	Giardia killer	KCNH2 WT inh	TCR activator
#1 CC(C)C(C(=O)N1CCOCC1)N1C(=O)c2ccccc2C1=O (stereo not given)
 : -2	20%	-9%	-1%	-10%	5%	-6	-16	-1%
#2 CCOc1cc(Br)c(CC(=O)O)cc1OCC
 : 3	20%	1%	-3%	?	3%	19	-2	-4%
#3 c1ccc(CSCc2ccccc2)cc1
 : nt	-3%	nt	nt	4%	-2%	5	0	-8%
#4 O=C(NC1Cc2ccccc2C1)c1cc(COc2cccc(C(F)(F)F)c2)on1
 : -2	9%	3%	5%	-12%	-2%	24	-7	0%
#5 COc1cccc(/C=C/C(=O)c2cccc([N+](=O)[O-])c2)c1
 : -4	-9%	-1%	1%	-1%	-2%	-11	0	-2%
#6 COc1ccc(S(=O)(=O)c2c(O)c3ccc(C(=O)Nc4ccc(F)cc4)cc3[nH]c2=O)cc1
 : 4	11%	-3%	6%	14%	-2%	-16	-12	-7%
#7 CC(C)N(C(=O)/C=C/c1cccc([N+](=O)[O-])c1)C(C)C
 : 4	0%	1%	2%	-3%	-21%	22	5	3%
#8 Cc1ccc(NC(=O)Cn2nc(-c3ccco3)ccc2=O)cc1Cl
 : 0	-3%	-6%	-7%	-10%	-7%	-12	5	0%
#9 O=c1cc(-c2ccccc2)oc2ccccc12
 : nt	-10%	nt	nt	4%	-8%	-25	-2	-2%
#10 CCC(NS(=O)(=O)c1c(C)[nH]c(=O)[nH]c1=O)C12CC3CC(CC(C3)C1)C2 (stereo not given)
 : 7	5%	5%	-1%	13%	0%	-2	-18	-1%
#11 CCCCN(C)C(=O)C1CCN(c2ccc(S(=O)(=O)N3CCOCC3)cc2[N+](=O)[O-])CC1
 : nt	5%	nt	nt	1%	-2%	14	3	-6%
#12 CCOCCCNCC(=O)Nc1ccc(S(=O)(=O)NC(C)CC)cc1 (stereo not given)
 : 2	2%	2%	0%	-1%	-7%	-14	-2	nt

The list itself, repeating the preview:
Values run as follows: FBPA coupling cs	AT treatment	CXXC DNA block	GALK inhibitor	Chronic BCR inh	Tb PFK block	Giardia killer	KCNH2 WT inh	TCR activator
#1 CC(C)C(C(=O)N1CCOCC1)N1C(=O)c2ccccc2C1=O (stereo not given)
 : -2	20%	-9%	-1%	-10%	5%	-6	-16	-1%
#2 CCOc1cc(Br)c(CC(=O)O)cc1OCC
 : 3	20%	1%	-3%	?	3%	19	-2	-4%
#3 c1ccc(CSCc2ccccc2)cc1
 : nt	-3%	nt	nt	4%	-2%	5	0	-8%
#4 O=C(NC1Cc2ccccc2C1)c1cc(COc2cccc(C(F)(F)F)c2)on1
 : -2	9%	3%	5%	-12%	-2%	24	-7	0%
#5 COc1cccc(/C=C/C(=O)c2cccc([N+](=O)[O-])c2)c1
 : -4	-9%	-1%	1%	-1%	-2%	-11	0	-2%
#6 COc1ccc(S(=O)(=O)c2c(O)c3ccc(C(=O)Nc4ccc(F)cc4)cc3[nH]c2=O)cc1
 : 4	11%	-3%	6%	14%	-2%	-16	-12	-7%
#7 CC(C)N(C(=O)/C=C/c1cccc([N+](=O)[O-])c1)C(C)C
 : 4	0%	1%	2%	-3%	-21%	22	5	3%
#8 Cc1ccc(NC(=O)Cn2nc(-c3ccco3)ccc2=O)cc1Cl
 : 0	-3%	-6%	-7%	-10%	-7%	-12	5	0%
#9 O=c1cc(-c2ccccc2)oc2ccccc12
 : nt	-10%	nt	nt	4%	-8%	-25	-2	-2%
#10 CCC(NS(=O)(=O)c1c(C)[nH]c(=O)[nH]c1=O)C12CC3CC(CC(C3)C1)C2 (stereo not given)
 : 7	5%	5%	-1%	13%	0%	-2	-18	-1%
#11 CCCCN(C)C(=O)C1CCN(c2ccc(S(=O)(=O)N3CCOCC3)cc2[N+](=O)[O-])CC1
 : nt	5%	nt	nt	1%	-2%	14	3	-6%
#12 CCOCCCNCC(=O)Nc1ccc(S(=O)(=O)NC(C)CC)cc1 (stereo not given)
 : 2	2%	2%	0%	-1%	-7%	-14	-2	nt
#13 CN(c1ccccc1)S(=O)(=O)c1ccc(C(=O)OCC(=O)NC(N)=O)cc1
 : 0	-14%	-4%	-3%	-2%	1%	-1	-3	-3%
#14 C[C@H](CCC(=O)O)[C@H]1CC[C@H]2[C@@H]3CC[C@@H]4C[C@H](O)CC[C@]4(C)[C@H]3CC[C@]12C
 : 14	10%	nt	nt	-2%	-1%	-29	-13	0%
#15 CCOCCCn1c(=S)[nH]c2cc(C(=O)NCc3ccc(F)cc3)ccc2c1=O
 : -1	8%	-3%	4%	3%	-4%	-17	5	2%

Record cards, as listed above. Screens in order: FBPA coupling cs	AT treatment	CXXC DNA block	GALK inhibitor	Chronic BCR inh	Tb PFK block	Giardia killer	KCNH2 WT inh	TCR activator
Results for Cc1ccc(NC(=O)Cn2nc(-c3ccco3)ccc2=O)cc1Cl = 0	-3%	-6%	-7%	-10%	-7%	-12	5	0%
Results for CC(C)C(C(=O)N1CCOCC1)N1C(=O)c2ccccc2C1=O (stereo not given) = -2	20%	-9%	-1%	-10%	5%	-6	-16	-1%

Next results follow:
Values run as follows: FBPA coupling cs	AT treatment	CXXC DNA block	GALK inhibitor	Chronic BCR inh	Tb PFK block	Giardia killer	KCNH2 WT inh	TCR activator
#16 Cc1[nH]n2c(=O)c3c(nc2c1-c1ccccc1)CCC3
 : 2	2%	11%	-4%	?	21%	-2	1	0%
#17 COc1cccc(NC(=O)c2ccc(NS(=O)(=O)c3cccs3)cc2)c1
 : nt	3%	nt	nt	?	0%	-13	-14	-30%
#18 CC(NS(=O)(=O)c1ccc([N+](=O)[O-])cc1)C(=O)NN (stereo not given)
 : -2	-10%	14%	-1%	-5%	3%	-21	nt	-1%
#19 CN(C)S(=O)(=O)c1cccc(-c2cn3ccccc3n2)c1
 : 0	-1%	-6%	1%	?	-6%	-17	-7	1%
#20 Cc1ccc(SCC(=O)Nc2nnc(C(C)(C)C)s2)cc1
 : 5	-6%	-3%	-7%	0%	-14%	0	-12	4%
#21 CCOC(=O)C1=C(C)N(C)C(=O)NC1c1c(OC)ccc2ccccc12 (stereo not given)
 : -2	10%	-6%	4%	-1%	1%	1	-14	nt
#22 Cn1c(CC(=O)Nc2ccccc2C(F)(F)F)c(Sc2ccccc2)c2ccccc21
 : 1	1%	0%	0%	-1%	1%	9	3	-7%[46.1 µM]
#23 COc1ccc(C2C3=C(Nc4ncnn42)c2ccccc2CCC3)cc1 (stereo not given)
 : 3	2%	5%	1%	0%	2%	-2	-1	-3%
#24 O=C(Nc1nnc(CCN2CCCCC2)s1)c1ccc(Cl)cc1Cl
 : 3	43%	37%[activator]	-3%	?	0%	3	-12	2%
#25 OC(CN1CCc2ccccc2C1)c1ccccc1 (stereo not given)
 : 2	0%	-1%	13%	2%	-1%	11	15	-4%
#26 O=C(NCc1ccc2c(c1)OCO2)NC1CCCCC1
 : 2	1%	7%	3%	?	-1%	-6	i	-7%
#27 CCOC(=O)C1CCN(C(=O)CCCNC(=O)Cn2cnc3sc(C)c(C)c3c2=O)CC1
 : 1	7%	-4%	-3%	1%	0%	-17	-12	8%

Assay outcomes deposited in PubChem by National Center for Advancing Translational Sciences (NCATS).
